Screening data deposited in PubChem BioAssay by Fisher Drug Discovery Resource Center.
NPYLR7 ag = agonists of mosquito NPYLR7 receptor, primary screen, cell-based, Aedes aegypti, calcium fluorescence, mosquito biting behavior. AID 1259423, 2018. Aedes aegypti neuropeptide Y-like receptor 7 (NPYLR7). HEK293T NPYLR7/Galpha15, GCaMP6s calcium fluorescence. activation, % at 10 µM. 270,000 compounds, 0.15% hits; in the data active means activation above about 40%;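 further: 0% = vehicle and 100% = reference agonist at the receptor; some compounds past the cut are filed as inactive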
NPYLR7 ag max-min = recorded beside NPYLR7 ag, whose call it bears; activation, %; measured here: Max-Min RFU normalised activation; some inactives read as strong as hits;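 span of the calcium signal over five minutes; 0% = vehicle and 100% = native peptide agonist; compound fluorescence can raise it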
* hit, by the source's call; & = joins results of further samples. A portion of the library, so the mix of outcomes need not match the whole.

A first look (5 entries):
SMILES	NPYLR7 ag	NPYLR7 ag max-min
Cc1nnc(NC(=O)NCC(c2ccccc2)c2ccccc2)s1	18.4	14.4
CC1CCN(C(=O)COc2ccccc2-c2nccn2-c2cccnc2)CC1	16.0	12.7
O=P1(NN=Cc2ccc(OC(F)F)cc2)C=C(c2ccccc2)OC(c2ccccc2)=C1	0.4	2.0
COc1cc2ccccc2cc1C(=O)Oc1cccc2ccc(C)nc12	-5.0	-9.7
CC1CCN(C(CNc2ccc3nnnn3n2)c2cccs2)CC1 (centres undefined)	10.5	1.0

This part in full (from the top)
SMILES	NPYLR7 ag	NPYLR7 ag max-min
Cc1nnc(NC(=O)NCC(c2ccccc2)c2ccccc2)s1	18.4	14.4
CC1CCN(C(=O)COc2ccccc2-c2nccn2-c2cccnc2)CC1	16.0	12.7
O=P1(NN=Cc2ccc(OC(F)F)cc2)C=C(c2ccccc2)OC(c2ccccc2)=C1	0.4	2.0
COc1cc2ccccc2cc1C(=O)Oc1cccc2ccc(C)nc12	-5.0	-9.7
CC1CCN(C(CNc2ccc3nnnn3n2)c2cccs2)CC1 (centres undefined)	10.5	1.0
Cc1ccc(-c2nnc(-n3ncc(C#N)c3N)c3ccccc23)cc1	-4.6	-6.3
CC(C)CCCC1CN(C(=O)c2ccccc2-c2ncc[nH]2)CCO1 (centres undefined)	6.0	3.0
CC(NC(=O)c1ccc(Cn2ccnc2)o1)c1nc2c(s1)CCCC2 (centres undefined)	12.0	6.8
CCOC(=O)c1sc2ccccc2c1S(=O)(=O)N1CC=C(c2ccccc2)CC1	7.5	5.9
COc1ccc2nc(N(CCn3cccn3)C(=O)c3ccc4c(c3)OCCO4)sc2c1	-21.7	-24.8
O=c1oc2ccccc2cc1S(=O)(=O)c1ccc(F)cc1	7.4	5.8
Cc1ccccc1CSc1nnc(CNC(=O)C(Cl)Cl)n1-c1cc(Cl)ccc1Cl	10.5	22.9
COc1cccc(CN2Cc3cc(NC(=O)OCc4ccccc4)ccc3OC(C)C2=O)c1OC (centres undefined)	5.7	5.0
COc1ccc(C(=O)N2CCN(c3cccc(Br)c3)C(=O)C2C)cc1 (centres undefined)	0.3	8.9
CC(=O)Nc1ccc(NC(=O)CSc2nc3c(c(=O)n2Cc2ccccc2)SCC3)cc1	7.3	-2.9
C=C(C)COc1ccccc1C(=O)NCc1c(C)noc1C	-4.5	-5.7
FC(F)(F)CCCN(Cc1ccsc1)CC1CCCO1 (centres undefined)	13.0	1.7
CC(C)NC(=O)c1ccc(Cl)c(NS(=O)(=O)c2c(F)cccc2F)c1	9.4	3.1
CC1(OCC#CCN2CCOCC2)COC(C)(OCC#CCN2CCOCC2)CO1 (centres undefined)	4.4	3.4
COc1cccc(CO[C@]2(C(=O)NCC3CC3)CC(OCc3cccc(Cl)c3)[C@@H]3OC(C)(C)O[C@@H]3C2)c1 (some centres undefined)	-6.9	-10.1
CCCCc1ccc(C#N)c(SCC(=O)c2ccc(Br)cc2)n1	-7.1	-12.8
O=C(NC1CC1)C(C1CCCC1)N1CCN(C(=O)c2ccc(F)cc2)CC1 (centres undefined)	-9.8	-8.7
CN(CC1COCCO1)C(=O)c1coc(COc2ccc3ncccc3c2)n1 (centres undefined)	-4.0	-14.9
COCCCn1c(CN2CCc3ccccc3C2)cnc1S(=O)(=O)C1CCCC1	5.9	2.7
Cc1nn(C)c2ncc(C(=O)N3CCN(Cc4cc(=O)c(OCc5cccc(F)c5)co4)CC3)c(Cl)c12	26.2	17.1

Carrying on.
SMILES	NPYLR7 ag	NPYLR7 ag max-min
O=C(NC1CCCCCCC1)c1ccc2ncsc2c1	6.5	4.5
OCCC1CN(Cc2cccc3c2OCO3)CCN1Cc1ccc(F)c(F)c1 (centres undefined)	10.6	-3.8
Cc1cccc(NC(=O)CCC2CCN(C(=O)C3=NN(C)C(=O)CC3)CC2)c1	11.6&-5.5	2.5&-7.5
O=C(O)c1ccccc1CN1CCCCC1CCn1cccn1 (centres undefined)	3.9	3.0
CCOC(=O)c1cc(-c2cccc(NC(=O)c3c(C)noc3C)c2)n(-c2ccccc2OC)n1	31.8	22.0
CC(C)c1nccc(-c2nccn2CC2(O)CCN(C)CC2)n1	26.1	12.2
N#Cc1cccc(C(=O)N2CCOC(Cc3ccccc3)C2)c1 (centres undefined)	24.8	29.2
CC1Sc2ccc(S(C)(=O)=O)cc2N(Cc2ccccc2)C1=O (centres undefined)	5.4	1.8
CCC(NC(=O)N1CCCC1c1cccn1C)c1ccc2c(c1)OCCO2 (centres undefined)	7.5	5.1
Cc1ccc2c(C(=O)NCCn3cccn3)cc(C)nc2c1	6.5	4.0
C=CC(C)(O)CN(Cc1c(-c2ccccc2)nn(C)c1Oc1ccc(Cl)cc1)CC1CCCO1 (centres undefined)	8.8	12.3
COc1ccc(-c2ccc(C(C)O)cc2)c2cccnc12 (centres undefined)	1.0	0.2
O=C(C1=CCCC1)N1CCCC(Nc2cccc(F)c2)C1 (centres undefined)	15.0	4.0
Cc1nc(CN(C)C(=O)CC2C(=O)NCCN2Cc2ccc(-c3ccccc3)cc2)cs1 (centres undefined)	5.8	3.1
Cc1cc(C(=O)N2CCCC2C(=O)O)c(C)o1 (centres undefined)	1.6	0.0
CC1(O)CCC(C(C)(C)O)CC1 (centres undefined)	-8.2	-6.7
CC(Nc1cc(C(C)C)nc2ncnn12)C(=O)N1CCOCC1 (centres undefined)	20.2	13.5
COc1ccc(/C=C2\SC(=O)N(CC(=O)NNC(=O)c3ccccc3O)C2=O)cc1	3.3	10.2
CCN(C)C(=O)c1cc(-c2cnn(C(C)(C)C)c2)nc2c(C)cccc12	-1.0	0.2
CCCS(=O)(=O)Nc1ccc(N(C)C)c(CN(C(=O)c2cccs2)C(C)CC)c1 (centres undefined)	13.1	8.8
Cc1ccc(C(c2ccccc2)N2CCN(S(=O)(=O)c3ccc(C)c(F)c3)CC2)cc1 (centres undefined)	32.5	13.7
CCNC(=O)[C@@H]1C[C@H](N)CN1C(=O)c1scc2c1CCCC2	9.6	6.8
O=C(O)c1coc(CN(Cc2cccc(Oc3ccccc3)c2)Cc2ccc3c(c2)OCO3)n1	6.6	10.1
COc1ccc2nc3c(nc2c1)-c1cccc2cccc-3c12	1.5	1.5
COC(=O)C(NS(=O)(=O)c1ccc(OC(F)(F)F)cc1)C(C)C (centres undefined)	0.7	3.5

(continued)
SMILES	NPYLR7 ag	NPYLR7 ag max-min
CCc1cnc(C)nc1-c1cccc(C)c1C	-5.5	51.7
CCn1c(C2CCCN(S(=O)(=O)c3ccc(C)c(C)c3)C2)n[nH]c1=O (centres undefined)	24.6	17.8
CCOC(=O)C1CCCN(C(=O)c2nn(-c3ccccc3F)c(=O)n(Cc3cccc(Cl)c3)c2=O)C1 (centres undefined)	10.3	11.5
CCOc1ccc(C(=O)NCCc2csc3nc(-c4ccc(OC)cc4)nn23)cc1	3.4	2.0
COc1ccc(S(N)(=O)=O)cc1C(=O)Nc1cccc(C(C)C)c1	1.8	0.8
COc1ccc(NC(=O)CN2C[C@@H](C)O[C@@H](C)C2)cc1NC(=O)c1ccccc1	16.7	8.0
Cc1c(C(=O)N2CCN(c3ncccc3C(=O)NCc3ccc4c(c3)OCO4)CC2)oc2ccccc12	21.0	22.4
CCN(CC)c1c(C)nc2ccc(C(=O)Nc3cccc(OCC(=O)N(C)C)c3)cn12	-6.1	-10.2
COc1ccc(Br)cc1S(=O)(=O)NNC(=O)c1cccn1C	-7.8	-11.9
CCOc1cccc(CNCC(C)(C)N2CCS(=O)CC2)c1	8.5	5.2
CC1CC(C)CN(CC(=O)N2CCN(S(=O)(=O)c3ccc(F)c(F)c3)CC2)C1 (centres undefined)	2.8	3.5
Cc1cc2c(cc1C)NC(CC(N)=O)C(=O)N2 (centres undefined)	-0.8	-2.8
COc1ccc(OC)c(NC(=O)C2(C)CCN2Cc2ccc(C)cc2)c1 (centres undefined)	4.6	2.1
CC(CN1CCOCC1)NC1CCN(C(=O)NC2CCCCC2)CC1 (centres undefined)	-6.3	-7.5
COc1c(Br)cc([N+](=O)[O-])cc1Br	-11.0	-21.4
C=CCn1c(SCC(=O)N(C(C)C)C(C)C)nc2sc3c(c2c1=O)CCC(C)C3 (centres undefined)	4.4	0.6
Cc1ccc(N2CC(c3nc4ccccc4n3C)CC2=O)cc1C (centres undefined)	0.4	-0.1
O=C(CN1C(=O)S/C(=C\c2ccc(Cl)cc2)C1=O)NNC(=O)c1ccccc1O	-4.7	-10.3
CN(C)CCN(C(=O)CN1C(=O)c2ccccc2C1=O)c1nc2cc3c(cc2s1)OCCO3	-6.0	-10.8
COc1cccc(C(=O)NC(Cc2ccccc2)c2nnc(SCc3cccc(C)c3)n2-c2ccc([N+](=O)[O-])cc2)c1 (centres undefined)	23.6	23.2
CCc1nnc2c(=O)n(-c3cccc(OC)c3)ccn12	-1.2	-9.3
COCCOC(=O)C1=C(C)N(Cc2ccccc2)C(=O)NC1c1ccccc1F (centres undefined)	-1.4	-6.7
Cc1cc(C(F)(F)F)nc(CCn2ccnc2-c2sccc2C)n1	-4.5	-7.8
O=C(NC(c1ccc(F)cc1)c1ccc2ccccc2n1)C1CCN(CCc2c[nH]c3ccccc23)CC1 (centres undefined)	-6.3	-3.7
CCOc1ccc(OCCN2C(=O)CSC2c2ccc(NC(C)=O)cc2)cc1 (centres undefined)	2.0	0.2

More results.
SMILES	NPYLR7 ag	NPYLR7 ag max-min
CC(C)Nc1ncccc1C(=O)NCC1CCCCC1	14.3	-1.5
O=C(NCC(F)(F)F)c1ccc(-n2cc(Br)cn2)cc1	-0.5	-3.2
CN1CCN(S(=O)(=O)c2ccc(N3CCCC3c3ccc4c(c3)OCCO4)nc2)CC1 (centres undefined)	-4.1	-6.1
Cn1c2ccccc2c2cc(C3=NN(c4ccccc4)C(c4ccccc4)C3)ccc21 (centres undefined)	-4.2	-10.1
Cc1ccccc1-n1nc(C)c(C(=O)NC2CC2)c1C(C)C	1.8	9.2
O=C(OCCN1CC([N+](=O)[O-])([N+](=O)[O-])CCC1=O)c1ccccc1	-12.9	-20.0
Cc1nc2n(n1)C(=O)C(C(c1ccc([N+](=O)[O-])cc1)N1CCN(Cc3ccccc3)CC1)S2 (centres undefined)	-1.3	-1.2
COc1ccc(NC(=O)N2CCC3(CC2)C(=O)N(CC(=O)N2CCCC2)CN3c2ccccc2)c(OC)c1	-2.2	6.9
CC(C)c1ccc(CC(=O)NCC2(C)CCN(C)C2)cc1 (centres undefined)	12.3	12.4
O=C(NCc1ccc2c(c1)OCO2)C1COC2(CCCCC2)N1C(=O)c1cccc(Cl)c1 (centres undefined)	24.3	30.3
COc1ccccc1-n1c(C)c(C)n2c3c(=O)n(CC(C)=O)c(=O)n(C)c3nc12	-2.2	14.4
CC(=O)C(C#N)(CC(=O)NC1CCS(=O)(=O)C1)c1c(Cl)cccc1Cl (centres undefined)	-1.0	-3.6
COc1ccc(/C=C/c2ccccc2)cn1	1.6	1.4
NC(=NOC(=O)c1ccccc1-c1ccccc1)c1ccncc1	-14.1	-20.5
CCC(C)N(Cc1ccc(OS(=O)(=O)CC)cc1)C(=O)COC (centres undefined)	20.6	16.3
CC(C)c1cc(CN2CCN(C3CCCCC3)C(CCO)C2)[nH]n1 (centres undefined)	4.5	0.7
COc1ccc(-c2noc(-c3c(SC)nn(CC(=O)Nc4ccc(C)cc4C)c3N)n2)cc1	1.0	-7.3
Cc1cccc2nc(-c3ccc4c(c3)OCO4)c(NC3CCCCC3)n12	-3.4	-1.1
Cc1nn(CN(CC2CC2)C2CC2)c(C)c1Br	3.7	3.2
O=C(C1=C(O)C(=O)N(CCCn2ccnc2)C1c1ccco1)c1ccco1 (centres undefined)	1.5&2.3	-0.7&0.3
CCC(C(=O)N1CCN(C(C(=O)N(C)Cc2ccco2)C2CCCC2)CC1)c1ccccc1 (centres undefined)	11.5	31.1
CCC1(c2ccccc2)NC(=O)N(Cc2coc(-c3cccs3)n2)C1=O (centres undefined)	5.6	8.6
Cc1ccc(CC2(Cc3ccc(C)cc3)C(=O)OC(C)(C)OC2=O)cc1	-1.4	0.7
CCN(CC)C(=O)C1CCCN(C(=O)CCC2(Cc3cccc4ccccc34)CCC(=O)N2)C1 (centres undefined)	5.2	5.0
Cc1[nH]c(C(C)(C)C)nc(=S)c1C(=O)N1CCN(C2CCC2)CC1	1.6	1.8

Next section.
SMILES	NPYLR7 ag	NPYLR7 ag max-min
Cc1c(C2=NNC(=CN3C(=O)NC(C)C3=O)O2)oc2ccccc12 (centres undefined)	4.7	1.5
O=C1COc2ccc(C(=O)CSc3n[nH]c(=O)n3Cc3ccccc3)cc2N1	-3.2	-5.3
Cc1ccc2nc(SCc3ccc(Cl)cc3Cl)nc(=O)n2c1	1.9	-2.0
CCc1nc2c(OCc3ccc(Cl)cc3Cl)cccn2c1N(C)C(=O)c1ccco1	-13.4	-13.8
O=C(c1cnc(-c2cccnc2)nc1)N1CCO[C@@H]2CCCC[C@H]21	1.9	0.4
COc1cc(Br)cc(/C=C2/NC(=S)NC2=O)c1O	15.6	33.2
O=C(CCl)N(CC(F)(F)F)c1ccc(Cl)cc1	4.3	0.0
CC1CCCN(C(=O)C2CCC(Cn3c(=O)[nH]c4ccsc4c3=O)CC2)C1 (centres undefined)	3.4	4.9
Cc1ccc(C(=O)OCCn2ccnc2)cc1	4.1	9.2
C=CCNc1nc(-c2cc(C)n(C3CC3)c2C)cs1	2.9	1.6
c1ccc(N=c2oc3ccc4ccccc4c3cc2-c2nc3ccccc3[nH]2)cc1	2.0	0.2

Reprinted at random: five compounds from above, in no set order.
SMILES	NPYLR7 ag	NPYLR7 ag max-min
CC(C)c1nccc(-c2nccn2CC2(O)CCN(C)CC2)n1	26.1	12.2
C=CC(C)(O)CN(Cc1c(-c2ccccc2)nn(C)c1Oc1ccc(Cl)cc1)CC1CCCO1 (centres undefined)	8.8	12.3
O=C(CCl)N(CC(F)(F)F)c1ccc(Cl)cc1	4.3	0.0
CC(Nc1cc(C(C)C)nc2ncnn12)C(=O)N1CCOCC1 (centres undefined)	20.2	13.5
CC1(O)CCC(C(C)(C)O)CC1 (centres undefined)	-8.2	-6.7
